High-throughput results: PubChem, ICCB-Longwood Screening Facility, Harvard Medical School
CapD inh – Bacillus anthracis CapD inhibitors, primary screen, biochemical, fluorescence intensity; CapD gamma-glutamyltranspeptidase (Bacillus anthracis Ames Ancestor); purified CapD enzyme, fluorescence intensity read-out; hits give low values; some hits fall short of the stated cut; z-score (concentration not given with the values); 0.23% of 140,000 active; AID 492967, 2010;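 active = z-score under -4 in either of two replicates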;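 also: stock transfer was 100 nL into about 40 µL; score is relative to mean and spread of the plate; one replicate is shown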
AID504770 – growth inhibition of E. coli YBA685, primary screen, V. cholerae RctB inhibitors; E. coli YBA685 rctB-dependent plasmid, OD600 growth, 3 h; hits give low values; z-score (test concentration not listed); 0.27% of 130,000 active; AID 504770, 2011;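 active = z-score under -2 on both plates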;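 also: wells of about 30 µL received 100 nL stock; score is relative to mean and SD of the test wells; the first replicate is given; strong numbers were not always called active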
Active calls of the source: *; i = inactive; . = no result given; & = joins results of further samples.

SMILES	CapD inh	AID504770
O=C(Nc1cc(C(F)(F)F)ccc1N1CCOCC1)c1cccnc1Oc1ccccc1	-0.09	.
Cc1cc(C)nc(N2CCN(C(=O)c3c(F)cccc3F)CC2)n1	0.71	.
CC(C)NC(=O)c1ccc(Cl)c(S(=O)(=O)Nc2ccc(Cl)cc2)c1	-0.465	-0.4
COc1cc2ncnc(NCc3ccccc3C(F)(F)F)c2cc1OC	1.22	.
COc1ccc(OCc2nnc(SCc3cc(=O)n4ccsc4n3)n2Cc2ccco2)cc1	.	0.85
CS(=O)(=O)c1cnc(-c2ccc(OCC3OCCO3)cc2)nc1-c1cccc(C(F)(F)F)c1	-0.35	.
O=C1CCCN1c1ccc(S(=O)(=O)NCCc2ccccc2)cc1	-0.115	0.65
N#Cc1c(C(F)(F)F)cc(-c2ccccc2)nc1Oc1ccc2ccccc2c1	-0.755	.
O=C1COc2ccc(C(=O)CSc3nc4cc(Cl)ccc4c(=O)n3C3CCCC3)cc2N1	.	-0.25
NC(=O)CSC1=N/C(=C\c2ccco2)C(=O)N1c1ccc(OC(F)F)cc1	.	0.4
O=C(NCCN1CCCC1)c1ccc2c(c1)OCCO2	.	-0.2
O=C1CC(c2cccc(Br)c2)NC(=O)N1 (stereo not given)	.	-0.95
O=C(CCC(=O)N(C1CC1)C1CCN(Cc2ccccc2)CC1)NCCN1CCOCC1	-0.415	.
CCOc1ccc(-n2c(SCC(=O)Nc3cc(Cl)c(OC)cc3OC)nc3n[nH]c(C)c3c2=N)cc1	0.01	.
CCOC(=O)c1ccc(NC(=O)c2cc(-c3ccccc3)nc3ccccc23)cc1	0.04	.
O=C(CSc1nc(=O)n(CCN2CCOCC2)c2c1CCC2)NCc1ccccc1	.	-2.15
CCn1c(N)c(C(=O)COC(=O)c2ccc(S(=O)(=O)C(F)F)cc2)c(=O)[nH]c1=O	.	0.95
O=C(O)C1C(c2ccccc2)C(C(=O)O)C1c1ccccc1 (stereo not given)	0.04	0.15
COc1cccc(CSc2ccc(S(=O)(=O)N3CCN(C)CC3)cc2C(=O)N2CCC(C)CC2)c1OC	-0.305	.
O=C(CCNC(=O)c1ccccc1Cl)Nc1ccc2c(c1)OCCO2	.	-1.05
O=C(Nc1cccc(Cl)c1)c1cccc(NC(=O)C(F)(F)F)c1	i	-0.05
O=C(NCCO)c1ccc(/C=N/O)nc1	0.075	0.25
O=c1c(Cl)c(NCCO)ncn1-c1ccccc1	.	-1.65
CCN(CC)C(=O)CSc1cn(CC(=O)N2CCCC2)c2ccccc12	0.175	0
CCC(C)(C)NC(=O)/C=C/c1cnc2ccccc2n1	.	0.1
Cc1ccc(C(=O)Nc2ccccc2N2CCCCC2)cc1	-0.5	-0.95
Cc1csc(=S)n1-c1ccccc1	-0.755	1.25
COc1ccc2cc(C#N)c(Nc3cccc(F)c3)nc2c1	0.78	1.5
Cc1ccc(NC(=O)CN(C)C(=O)Nc2ccc(C)cc2)cc1	.	0.35
O=C(COc1ccccc1)Nc1cccc(-c2nn[nH]n2)c1	1.48	-0.3
Cc1ccc(C2=NN3C(C2)c2ccccc2OC3c2ccc(OC(=O)c3ccccc3)cc2)cc1 (stereo not given)	1.15	.
NC(=O)c1nn(-c2ccc(Cl)cc2)c(=O)c2ccccc12	7.42	-0.2
CC(=O)OC(COCc1ccccc1)Cn1cnc2ccccc21 (stereo not given)	.	-0.95
COCc1nc2ccccc2n1Cc1ccc(F)cc1	-0.06	-0.4
COC(CNC(=O)c1ccc(CNC(=O)c2cccc(Br)c2)cc1)OC	40.5	1.75
COC(=O)c1cc2cc(Br)ccc2c(Br)c1OC	0.605	1
COCCn1c(=NC(=O)c2ccc(C(=O)OC)cc2)sc2cc(C)ccc21	0.835	0.35
O=C(Oc1ccc(NC2=NS(=O)(=O)c3ccccc32)cc1)c1ccc(Br)cc1	0.72	.
Cc1ccc2c(c1)C(c1ccccc1)N(C(=O)C(C)C)CC(=O)N2 (stereo not given)	0.355	0.15
Cc1cc([N+](=O)[O-])ccc1N1C(=O)C2C3c4ccccc4C(CO)(c4ccccc43)C2C1=O (stereo not given)	-0.365	.

Single entries from the entries so far:
CapD inh, Cc1ccc(C(=O)Nc2ccccc2N2CCCCC2)cc1 stands at -0.5
AID504770, Cc1ccc(NC(=O)CN(C)C(=O)Nc2ccc(C)cc2)cc1 stands at 0.35

(list continues)
SMILES	CapD inh	AID504770
CC(Cc1ccccc1)N=C1NS(=O)(=O)c2ccccc21 (stereo not given)	.	-0.8
Cc1ccc2nc(SCc3ccccc3)[nH]c2c1	0.4	1.15
O=C1Nc2ccccc2S/C1=C\c1cccc(Cl)c1	0.11	0.4
Nc1nc(-c2sc3nc4c(cc3c2N)CCC4)nc(N2CCOCC2)n1	2.2	-0.85
N#Cc1cn(C2CC2)c(=O)n(Cc2ccccc2)c1=O	0.91	-0.75
COC(=O)C1(C(=O)OC)C(c2ccc(Cl)cc2)C1(C#N)C#N (stereo not given)	0.135	1.35
CC1=NN(c2ccccc2)C(=O)/C1=N\OCC(=O)N1CCCc2ccccc21	.	-0.95
Cc1ccc(-n2c(=S)sc3c(=O)n(-c4ccccc4C)c(=S)[nH]c32)c(C)c1	-1.11	.
CN1C2=C(C(=O)CCC2)C(c2ccccc2)C2=C1CCCC2=O	25.2	0.75
CC(=NCc1ccc2c(c1)OCO2)c1ccccc1O	-0.09	.
CO/N=C(\CSc1ccc(Cl)cc1)c1c(C)nc2cc(C)ccn12	-0.685	.
c1ccc(C2CCCCS2)cc1 (stereo not given)	0.185	0.7
CCOc1c(Br)cc(C2C(C(=O)OC)=CN(Cc3ccc(OC)cc3)C=C2C(=O)OC)cc1OC	58.5	.
Nc1nonc1-c1nc2ccccc2n1CC(=O)Nc1ccccc1	-0.675	1.15
CCn1cc(CCC(=O)NCc2cccs2)c2ccccc21	0.55	-1.15
CCN(C(=O)Cc1ccc(F)cc1)C1CCCCC1	0.98	0.45
O=C(NC(Cc1c[nH]c2ccccc12)C(=O)OCc1ccccc1)OCCCc1ccncc1 (stereo not given)	1.07	.
Cc1ccc(SCC(=O)Nc2ccc(N3CCOCC3)c(F)c2)cc1	0.205	.
Cc1ccc(-c2csc(-c3ccncc3)n2)cc1	6.46&11.4	.
Cc1cc(C(=O)Oc2ccc(Cl)cc2)no1	-0.335	1.55

6 successive entries out of the list so far:
SMILES	CapD inh	AID504770
CO/N=C(\CSc1ccc(Cl)cc1)c1c(C)nc2cc(C)ccn12	-0.685	.
c1ccc(C2CCCCS2)cc1 (stereo not given)	0.185	0.7
CCOc1c(Br)cc(C2C(C(=O)OC)=CN(Cc3ccc(OC)cc3)C=C2C(=O)OC)cc1OC	58.5	.
Nc1nonc1-c1nc2ccccc2n1CC(=O)Nc1ccccc1	-0.675	1.15
CCn1cc(CCC(=O)NCc2cccs2)c2ccccc21	0.55	-1.15
CCN(C(=O)Cc1ccc(F)cc1)C1CCCCC1	0.98	0.45

Following part
SMILES	CapD inh	AID504770
CCOc1cc(C2C(C#N)=C(N)Oc3n[nH]c(C)c32)ccc1OCc1ccccc1Cl (stereo not given)	-0.33	.
COc1ccc(N=Cc2ccc3ncccc3c2)cc1	-0.03	2.25
CN(C)C(=O)Oc1nc(-c2ccc(Cl)cc2)cs1	-0.19	0.5
N/C(=N\S(=O)(=O)c1cc(Cl)c(Oc2ccc([N+](=O)[O-])cc2)c(Cl)c1)c1ccc(Cl)cc1	-0.4	.
C=CCOc1cc2c(cc1C(C)c1ccc(OC)cc1)OCO2 (stereo not given)	0.345	-0.3
CC1CCc2nc3ccc(S(=O)(=O)N4CCC(C(=O)N5CCCC5)CC4)cc3c(C(=O)O)c2C1 (stereo not given)	0.005	-0.35
COc1ccc2ccccc2c1CN1CCCC(COC(=O)NCCc2c[nH]c3ccc(Cl)cc23)C1 (stereo not given)	1.21	.
Cc1ccc(NC(=O)COC(=O)C23CCC(=O)N2c2ccccc2C(=O)N3C2CC2)cc1C (stereo not given)	.	0.05
Cc1ncc(-c2ccncn2)c(-c2ccc(C(F)(F)F)nc2)n1	-0.615	.
COc1ccc(S(=O)(=O)Nc2cccc3cc(C(=O)N(C)Cc4ccccc4)[nH]c23)cc1	-0.55	.
COc1ccc(OC)c(NC(=O)c2cc(S(=O)(=O)N3CCN(c4cccc(C)c4C)CC3)ccc2F)c1	0.065	.
Cc1cccc(C(=O)NNc2ncnc3c2cnn3-c2ccc(Cl)cc2)c1	0.205	-0.6
COC(=O)c1ccc(CN2CCN(Cc3ccc(C(=O)OC)o3)CC2)o1	-0.195	2.05
COc1ccc(-c2cc(-c3nc4c5ccccc5ncn4n3)[nH]n2)cc1	.	-0.1
O=S(=O)(Cc1ccccc1)NCc1ccccc1	0.365	-0.25
COC(=O)c1cc(S(=O)(=O)N2CCOCC2)cn1C	0.18	-0.7
COc1ccc(/C=N/NC(N)=S)cc1	.	0.5
CCOc1ccccc1NC(=O)c1oc2ccccc2c1NC(=O)C1CCCO1 (stereo not given)	.	0.3
CC(OC(=O)/C=C/c1ccco1)C(=O)Nc1cccc(Cl)c1 (stereo not given)	0.27	-0.35
COc1ccc(NC(C)C(=O)Nc2nccs2)cc1 (stereo not given)	.	-1.2
O=C1C2C3C=CC(C2C(=O)N1c1cccc(O)c1)C1C2C(=O)N(c4cccc(O)c4)C(=O)C2C31 (stereo not given)	0.255	.
CCn1c2ccccc2c2nc3cc4ccccc4cc3nc21	-0.325	.
CC1CC(C)CN(c2cc(NCCCO)c([N+](=O)[O-])c3nonc23)C1 (stereo not given)	-0.34	.
Cc1cc(OCC(=O)O)cc2c1C(=O)CC(C)(C)O2	6.81	0.05
Cc1nn(-c2nc3ccccc3[nH]2)c(N)c1-c1ccc(Cl)cc1	0.435	0.65
CC(C)c1ccccc1NC(=O)c1cc2ccccc2o1	0.695	-0.5
CN(C)CCCNC1=CC(=O)OC12CCCCC2	0.095	-0.6
COc1ccc(/C=N/C2=NNC(c3ccccc3)=CS2)cc1	1.86	-0.15
CC(=O)Nc1ccc(S(=O)(=O)N2CCCC2)cc1Cl	-0.695	0.3
O=C1CCCc2c1cc(C(=O)O)c(=O)n2-c1ccccc1	.	0.25
CC(SC(=S)N1CCCC1)C(=O)O (stereo not given)	-0.15	-2.15
O=c1[nH]c(=S)[nH]c(O)c1-c1ccccc1	0	-0.55
Cn1c(=O)n(C)c2cc(S(=O)(=O)N3CCCCC3)ccc21	.	-0.55
Cn1c2c(c(=O)n(C)c1=O)C(c1ccc([N+](=O)[O-])cc1)Nc1ccccc1O2 (stereo not given)	0.06	.
CCc1ccc(NS(=O)(=O)c2ccc3c(c2)OCCN3C(C)=O)cc1	-0.08	-0.55
NNC(=O)c1cccc(NN)n1	.	-1.85
CN(CCC#N)S(=O)(=O)c1cccc2nsnc12	-0.665	.
O=C(Cn1c(=O)oc2cc(S(=O)(=O)NCc3ccccc3)ccc21)NC1CCCC1	0.265	2.3
CC(C)(C)OC(=O)N1CCN(S(=O)(=O)c2ccc(-n3cnnn3)cc2)CC1	0.505	1.15
O=C(CNc1n[nH]c(=O)[nH]c1=O)N/N=C/c1ccccc1	0.48	-0.05
COc1cc2c(cc1OC)C(C(Cl)Cl)=NC(C)(C)C2	-0.08	.
COc1ccc2cc(Br)ccc2c1CC(=O)NN1CCN(C)CC1	0.61	0.55
O=c1[nH]cc(N2CCCCC2)c(=O)[nH]1	-0.365	-1.1
CCOC(=O)c1ccc(-n2c(=S)sc3c2nc(SCC#N)n2c4ccccc4nc32)cc1	1.36	.
Cc1cc(Br)cc2c1N(C)C(=O)/C2=C1\SC(=Nc2ccc(F)cc2)NC1=O	0.335	1.35
COc1cc(OC)c(OC)cc1/C=C1N=C(/C=C/c2cccc(Cl)c2Cl)OC\1=O	-0.565	.
CCOC(=O)c1ccsc1NC(=O)c1ccc(C(F)(F)F)cc1	0.84	.
Cc1ccc(CNC(=O)C2CSC(c3cccs3)=N2)cc1 (stereo not given)	.	-0.8
CCN(CC(=O)Nc1cccc(F)c1)CC(=O)Nc1ccc2c(c1)OCCO2	.	1.3
COC(=O)C(O)(c1c(-c2ccccc2)nc2sccn12)C(F)(F)F (stereo not given)	.	-1.15

Entries of single compounds as entered above:
Entry for COc1cc(OC)c(OC)cc1/C=C1N=C(/C=C/c2cccc(Cl)c2Cl)OC\1=O = CapD inh = -0.565; AID504770 = .
Entry for CCOC(=O)c1ccc(-n2c(=S)sc3c2nc(SCC#N)n2c4ccccc4nc32)cc1 = CapD inh = 1.36; AID504770 = .
Entry for O=c1[nH]cc(N2CCCCC2)c(=O)[nH]1 = CapD inh = -0.365; AID504770 = -1.1

(more compounds)
SMILES	CapD inh	AID504770
CN(C)c1cc(C(=O)NCCN2CCOCC2)nc(N(C)C)n1	0.445	.
N#CC1=C(N)C(C#N)(C#N)C2(CCCC2)C2CCC=C12 (stereo not given)	0.145	.
N#Cc1ccc(OCc2ccccc2)cc1	-0.745	.
Cc1ccc(O)c(C(=O)CC(=O)c2cccs2)c1	-0.685	0.9
CN1CCN(Cc2cn[nH]c2-c2ccc(F)cc2)CC1	0.21	0.05
Cn1c(-c2cc(Br)cs2)nc(=O)c2cc(Cl)ccc21	-1.59	0.1
O=c1cc(C(F)(F)F)nc(SCc2ccccn2)[nH]1	.	0.25
O=C(Nc1cc(Cl)ccc1Cl)c1cc(S(=O)(=O)NC2CCCC2)ccc1F	-0.72	1.85
O=C(NCC1CC1)C1C2C3C4CC5C3C5C4C12 (stereo not given)	.	-0.1
CC(N)C(=O)Nc1ccccc1-c1ccccc1 (stereo not given)	-0.095	-0.9
CC1(C)CC(=O)C2=C(C1)OC(N)=C(C#N)C21C(=O)N(CCc2ccccc2)c2ccccc21 (stereo not given)	-0.165	0.6
CC(NCC(O)Cn1nnnc1-c1ccccc1)c1ccccc1 (stereo not given)	0.025	-1.4
CN1/C(=C\C=Nc2cccc(C(=O)O)c2)C(C)(C)c2ccccc21	-0.355	0.95
